# Assay outcomes deposited in PubChem BioAssay by National Center for Advancing Translational Sciences (NCATS).
# Vif-APOBEC3F blk: inhibitors of Vif-A3F interaction. HeLa A3F-eYFP + Vif (tagged APOBEC3F with the HIV-1 protein that degrades it), YFP fluorescence increase. Potency, µM (titrated, usually from 46.1 µM), for inactives: top-dose activity, negative = active. 390,000 tested, 0.2% active. AID 602313; also: potency is read from the fitted curve at half-maximal effect; % of control where 0% means no effect; nearly all actives have a fitted effect of over 65% in size
#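 Fluorescence increase (Ex 488/Em 500-530) after overnight compound treatment at 37 deg C flags inhibition of Vif-driven A3F-eYFP loss in stable HeLa A3F-eYFP/Vif cells seeded overnight beforehand.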
# GRP78 ERSR act: inducers of ER stress response in human glioma cells; Potency, µM, for the others: at the top dose activation, usual class: activators; U87-MG GRP78 promoter luciferase reporter, 16 h; AID 602332; 420,000 tested, 0.02% active; also: potency is read from the fitted curve at half-maximal effect; series mostly up to about 76 µM; % of control where 0% means no effect; nearly all actives have a fitted effect of over 35% in size
#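 Stably transfected U87-MG human glioma cells carrying a GRP78-based luminescent sensor were seeded at 1000 cells/well, pin-dosed with compounds and incubated 16 h. Luciferase reagent was then added, and end-point luminescence was read after 10 min at room temperature.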
# D1 antagonist: human D1 dopamine receptor antagonism | P21728 | HEK293 TREx D1 cells, calcium flux, dopamine EC80; stronger effect = lower value | activity change, negative = inhibition, % at 10 µM | 360,000 tested, 3.2% active; in the data active = activity change below about -30%; also: % is scaled to controls: 0 for no effect and ±100 for the full control effect
# Target sequence (P21728 whole entry, looked up): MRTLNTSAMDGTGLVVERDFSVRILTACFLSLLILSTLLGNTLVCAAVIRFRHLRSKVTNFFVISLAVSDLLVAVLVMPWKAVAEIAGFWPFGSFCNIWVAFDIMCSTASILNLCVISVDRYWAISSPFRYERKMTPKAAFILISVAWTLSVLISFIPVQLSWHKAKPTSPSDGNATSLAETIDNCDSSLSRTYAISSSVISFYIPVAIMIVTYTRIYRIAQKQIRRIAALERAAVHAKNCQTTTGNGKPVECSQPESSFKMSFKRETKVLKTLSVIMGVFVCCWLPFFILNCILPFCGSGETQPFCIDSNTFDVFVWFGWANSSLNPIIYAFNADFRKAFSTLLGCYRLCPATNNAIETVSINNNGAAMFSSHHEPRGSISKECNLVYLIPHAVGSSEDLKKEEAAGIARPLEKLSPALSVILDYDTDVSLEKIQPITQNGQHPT
#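 Allosteric or orthosteric antagonism assessed as attenuation of the calcium response to EC80 dopamine, added 180 s after compound, in induced HEK293 Trex D1 cells loaded with no-wash calcium dye.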
# D2 potentiator: positive allosteric modulators of human D2 dopamine receptor; P14416; HEK293 T-REx D2, calcium flux, EC20 dopamine potentiation; potentiation, % at 10 µM; 340,000 tested, 0.34% active; AID 485347;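 active = potentiation over 3 SD above the plate norm, cut at about 30% in these data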; also: 0% is about no effect
# Target sequence (P14416 whole entry, looked up): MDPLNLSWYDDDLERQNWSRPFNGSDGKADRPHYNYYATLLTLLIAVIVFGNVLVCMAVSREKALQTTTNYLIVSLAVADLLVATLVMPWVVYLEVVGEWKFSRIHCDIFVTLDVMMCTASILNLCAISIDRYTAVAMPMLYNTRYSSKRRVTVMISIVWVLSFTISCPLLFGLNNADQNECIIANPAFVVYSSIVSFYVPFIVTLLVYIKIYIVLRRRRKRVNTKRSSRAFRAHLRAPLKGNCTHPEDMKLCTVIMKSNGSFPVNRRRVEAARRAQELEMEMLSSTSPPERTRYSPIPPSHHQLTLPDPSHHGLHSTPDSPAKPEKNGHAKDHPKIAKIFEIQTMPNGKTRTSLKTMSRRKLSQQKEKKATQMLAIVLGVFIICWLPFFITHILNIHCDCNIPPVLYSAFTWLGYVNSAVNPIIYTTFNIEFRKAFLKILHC
#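 Cells plated with tetracycline inducer and held overnight at 30 C; calcium dye loaded 30–90 min at room temperature; baseline taken, compound added and read 180 s; EC20 dopamine then added and read 180 s.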
# D1 potentiator: potentiators of human D1 dopamine receptor | HEK293 TREx D1 cells, calcium flux, dopamine EC20 potentiation | potentiation, % at 10 µM | AID 504651 | P21728 | 360,000 tested, 0.036% active; in the data active = potentiation above about 30%; also: 0% is about no effect
# Vif-A3G inh: inhibitors of Vif-APOBEC3G interaction; Q9HC16; HeLa A3G-eYFP + Vif (tagged APOBEC3G with the HIV-1 protein that degrades it), YFP fluorescence, overnight; Potency, µM (titrated, usually from 46.1 µM), for the others: at the top dose activity, negative = active, most hits filed as inhibitors; 410,000 tested, 0.076% active; AID 602310;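 also: potency is read from the fitted curve at half-maximal effect; % is scaled to controls: 0 for no effect and ±100 for the full control effect; nearly all actives have a fitted effect of over 60% in size; hits raise eYFP signal because A3G escapes Vif-driven loss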
#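 HeLa cells stably expressing Vif and C-terminally eYFP-tagged A3G, seeded overnight at 37 deg C, then exposed to compound by pintool overnight at 37 deg C. Rise in yellow fluorescence (Ex 488/Em 500-530, Acumen) marks blocked Vif-driven A3G degradation.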
# D1 agonist: agonists of human D1 dopamine receptor. HEK293 T-REx D1 cells, calcium flux, agonist mode. P21728. AID 504660. 360,000 tested, 1% active. activation, % at 2 µM; in the data active = activation above about 30%; also: 0% is about no effect
#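 Tetracycline-induced HEK293 TREx D1 cells, force-coupled to calcium signalling, were dye-loaded with a no-wash calcium kit. Compound was pin-added after a 10 s baseline. Fluorescence was read kinetically at 1 cycle/s for 180 s, with calcium rises flagged as agonism.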
# Numbers without * were called inactive; ? = inconclusive; · = not tested or not shown; & = joins results of further samples. Unless noted, calls follow the shape of the dose curve; as a rule, active = well fitted curve in the direction sought with a large enough effect; inconclusive = small, poorly fitted or top-dose-only effect, or another doubt; inactive = no such curve, though single readings can be large; an effect the other way counts as inactive or inconclusive. Not all compounds are listed (hit frequency here may not be typical).
SMILES,Vif-APOBEC3F blk,GRP78 ERSR act,D1 antagonist,D2 potentiator,D1 potentiator,Vif-A3G inh,D1 agonist
Cc1nn(CC(=O)NCC2CCCO2)c(=O)c2cc3ccccc3n12 (configuration not stated),1%,-6%,1,7,-5,0%,0
CCc1nn(CC(=O)NC(C)c2ccccc2)c(=O)c2cc3sccc3n12 (configuration not stated),1%,-3%,-5,-6,0,2%,1
Cn1c(SCC(=O)Nc2ccc(C(N)=O)cc2)nnc1-c1cccs1,7%,-6%,-8,5,-3,0%,0
CCOc1ccc(NC(=O)CSc2nc3ccccc3nc2N2CCOCC2)cc1,1%&-3%,0%&-2%,10&15,-5&6,3&-3,0%&0%,3&1
Cc1sc(NC(=O)c2oc3ccccc3c2C)c(C#N)c1C,-27%,1%,18,-15,7,3%,3
Cc1cc(NC(=O)CSc2nc(C(C)(C)C)nc3ccccc23)no1,-1%,-5%,-1,1,-3,-7%,1
COc1cc(OC)c(C(=O)Nc2ccc(S(=O)(=O)Nc3ncccn3)cc2)cc1OC,0%,-4%,-1,23,2,1%,4
Fc1cccc(Cc2noc(CN3CCOCC3)n2)c1,0%,-1%,-9,-6,2,1%,0
Cc1csc2nc(COC(=O)c3ccc(NC(=O)C(C)C)cc3)cc(=O)n12,2%,-2%,-18,-1,1,6%,8
O=S(=O)(c1ccc(Br)cc1)N1CCN(c2cc(-c3ccccc3)nc3ncnn23)CC1,0%,-3%,-5,20,-6,4%,4
C=CCSc1nc(Oc2ccccc2)c2sccc2n1,-1%,-6%,-5,22,-7,-5%,16
CCOc1ccc(NC(=O)CSc2nc3ccccc3c(=O)n2CCNC(C)=O)cc1,13%,-4%,-18,·,-4,-3%,4
Cc1ccc(Cc2c(C)nc3nc(SCC(=O)NCCC(C)C)nn3c2C)cc1,-4%,0%,17,7,1,-1%,-1
C=CCn1c(CCNC(=O)c2ccccc2F)nnc1SCC(=O)Nc1ccccc1F,-10%,-2%,1,-8,1,2%,3
Cc1ccc(NC(=O)Cn2c(=O)n(Cc3ccc(F)cc3)c(=O)c3cccnc32)cc1C,2%,-7%,-20,17,-4,2%,1
Cc1nnc(SCC(=O)NCc2ccccc2F)c2nn(-c3ccc(Cl)cc3)c(C)c12,-22%,-5%,8,18,8,?,1
CN(C)S(=O)(=O)NCc1ccc2c(c1)OCO2,-3%,-1%,-6,-10,-1,-3%,3
COc1ccc(-c2nnc(SCC(=O)Nc3cccc(C)c3)s2)cc1,2%,0%,-3,0,-1,4%,2
CN(Cc1ccccc1)S(=O)(=O)c1nnc(NC(=O)c2cccc(Cl)c2)s1,0%,-2%,9,4,-1,3%,0
Cn1c(=O)c2sccc2n2c(CCC(=O)Nc3ccc(F)cc3)nnc12,-4%,1%,-2,-10,0,-1%,-1
O=c1[nH]c(SCC2CCCCO2)nc2ccccc12 (configuration not stated),-12%,8%,-11,11,1,-6%,-1
CCc1ccc(C(=O)c2cn(CC(=O)Nc3cccc(C)c3C)c3nc(C)ccc3c2=O)cc1,3%,-3%,11,8,0,1%,4
O=C1CC(c2ccccc2)Cc2[nH]c(=O)c(C(=O)Nc3cccc(Cl)c3)cc21 (configuration not stated),0%,-5%,-5,3,1,2%,9
Cn1c(SCC(=O)Nc2ccccc2F)nnc1-c1cccs1,0%,1%,-14,-4,·,1%,13
COc1ccccc1CNc1ncnc2cc(Cl)ccc12,4%,-3%,-7,-5,5,-1%,9
Cc1cc(O)c2c(C)c(CC(=O)NCc3ccccc3Cl)c(=O)oc2c1,2%,2%,-35*,-1,-3,-3%,1
CC(C)=CCCC(C)CN1CCC(N2CCC(C(=O)N3CCCC3)CC2)CC1 (configuration not stated),3%,-2%,-4,-10,-4,1%,7
CCOC(=O)c1ccc(Nc2nn3c(=O)c4ccccc4nc3s2)cc1,1%,-2%,10,3,-1,6%,4
Cc1nc(SCC(=O)NCC2CCCO2)c2c3c(sc2n1)CCCC3 (configuration not stated),-14%,1%,-2,4,2,-3%,-1
CCCN(CCC)CCNC(=O)c1cc(-c2ccc(Br)s2)nc2ccccc12,0%,0%,8,-3,0,3%,9
Cc1cc([N+](=O)[O-])ccc1NC(=O)c1sc2ncn(CC(=O)N3CCOCC3)c(=O)c2c1C,3%,-1%,0,18,-3,0%,6
Cc1nn2c(-c3ccc(S(=O)(=O)N4CCN(C)CC4)o3)nnc2c2ccccc12,-6%,-6%,-24,23,-6,0%,0
Cc1cc(C)cc(N(C(=O)c2csnn2)C(C(=O)NC2CCCC2)c2ccccn2)c1 (configuration not stated),-7%,4%,-1,-4,·,-3%,7
CCOc1ccccc1CNC(=O)c1cc2c(=O)n(Cc3cccnc3)ccc2nc1C,1%,-2%,13,-2,6,2%,0
NS(=O)(=O)c1ccc(CNC(=O)c2cc(-c3ccccn3)nc3ccc(Cl)cc23)cc1,-13%,-4%,7,-5,-6,-5%,1
Cc1nn2c(-c3cccc(NC(=O)c4ccco4)c3)nnc2c2ccccc12,0%,-4%,3,·,2,-29%,0
CSc1nc(Oc2ccc(Cl)cc2)c2sccc2n1,4%,-5%,14,5,-3,-5%,10
Cc1nnc(SCc2ccc(Cl)cc2)c2cc3occc3n12,-13%,1%,9,2,-4,-4%,1
COc1cc2[nH]c(=S)n(CCN3CCCCC3C)c(=O)c2cc1OC (configuration not stated),1%,-2%,8,-17,-2,-1%,0
OC1CCN(C(c2ccc3ncccc3c2)c2nnnn2C2CCCCC2)CC1 (configuration not stated),-2%,-2%,-1,7,-3,0%,1
CCOC(=O)N1CCN(CC(=O)Nc2sc(CC)cc2C(=O)c2ccc(OC)cc2)CC1,7%,-6%,-31*,2,2,3%,8
Cn1c(=O)c2sccc2n2c(CCCC(=O)Nc3ccccc3)nnc12,8%,-5%,-2,-5,3,-5%,4
COc1ccc2oc(=O)cc(CN3CCN(c4ccc(F)cc4)CC3)c2c1,8%,-2%,-2,15,0,7%,0
CCCCCNC(=O)c1ccc(NS(=O)(=O)c2ccc3[nH]c(=O)[nH]c3c2)cc1,-3%,-5%,-11,-3,-4,1%,0
Cc1cc(C)c(NC(=O)Cn2c(=O)n(CCC(C)C)c(=O)c3cccnc32)c(C)c1,0%,-3%,1,-5,-3,-2%,2
COc1ccc(CNc2nc(SC)n[nH]2)cc1OC,4%,-4%,8,3,-3,3%,0
COc1ccc(/C=N/Nc2cc(C)nc(-n3nc(C)cc3C)n2)cc1,-23%,-5%,11,-2,-5,-19%,3
O=C(C1=C(O)C(=O)N(CCN2CCOCC2)C1c1cccc(F)c1)c1cc2ccccc2o1 (configuration not stated),-6%,-4%,21,6,6,-5%,3
CCc1cc2c(cc3c(=O)n(CC(=O)NC(C)C)nc(CC)n32)s1,0%,-2%,-9,-4,-5,-8%,-1
CCc1nc(NCCCCCO)c2nnn(Cc3ccccc3F)c2n1,7%,-2%,·,25,-2,0%,-1
COc1ccc(-c2c(C#N)c(N)nc(Sc3ccc(Cl)cc3)c2C#N)cc1,?,-3%,-3,-7,3,?,5
Cc1cccc(C(=O)Nc2ccc(C(=O)OCc3cc(=O)n4c(C)csc4n3)cc2)c1,3%,-3%,-17,9,1,4%,7
CS(=O)(=O)c1ccc(C(=O)OCC(=O)NC(=O)Cc2ccccc2)cc1,-6%,-1%,7,1,2,0%,15
CCOc1ccccc1NC(=O)c1cc2c(=O)n(Cc3cccnc3)ccc2nc1C,0%,-2%,8,3,-5,-2%,0
COCCCNc1nc2c(S(=O)(=O)c3ccccc3)nnn2c2ccc(Cl)cc12,-2%,-2%,-16,-3,-4,3%,1
CC1CCCN(C(=O)CSc2cnc3ccccc3n2)C1 (configuration not stated),-1%,2%,5,-3,1,-1%,2
CCCOc1ccc(C(=O)C(CN2CCOCC2)c2ccccc2)cc1 (configuration not stated),-6%,-15%,6,-2,-10,-25%,0
Cc1ccc(S(=O)(=O)c2nnn3c2nc(NCc2ccccc2Cl)c2sccc23)cc1,-1%,-1%,-1,-5,-4,-5%,4
CCOc1ccc(N2C(=O)C3ON(c4ccccc4)C(c4ccco4)C3C2=O)cc1 (configuration not stated),-2%,-5%,-7,5,-8,-3%,5
Cc1c(C(=O)Nc2ccc(F)cc2F)oc2ccc3c(c12)C(=O)CC(C)(C)O3,-5%,-2%,4,3,-5,-5%,3
# (listing goes on)
SMILES,Vif-APOBEC3F blk,GRP78 ERSR act,D1 antagonist,D2 potentiator,D1 potentiator,Vif-A3G inh,D1 agonist
O=C(c1ccco1)N1CCN(C(=O)C2CC(c3ccc(Cl)cc3)=NO2)CC1 (configuration not stated),-4%,-6%,5,-3,-6,2%,12
Cc1ccc(-n2c(=S)[nH]c3c(oc4ccccc43)c2=O)cc1C,-5%,-3%,1,3,-1,0%,0
COCCCn1c(=S)[nH]c2c(sc3ccccc32)c1=O,?,3%,3,19,0,-3%,4
CCOc1ccc(/C=C/c2nc(C#N)c(N3CCCCCC3)o2)cc1,-3%,1%,2,-4,1,-5%,1
